Rce1 inhib: inhibitors of yeast Ras-converting enzyme | 0.27% of 290,000 active | yeast membranes, quenched prenylated peptide cleavage fluorescence | Q03530 | calls only;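 active = fall in fluorescence gain of 50% or more versus controls, with final raw signal at or below 3038400; inconclusive = same 50% fall but final raw signal above 3038400; inactive = fall in fluorescence gain under 50%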;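 also: plate controls were neutral control wells for no effect and wells lacking membranes for full effect; tested at 10 µM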
Target sequence (Q03530 whole entry, looked up): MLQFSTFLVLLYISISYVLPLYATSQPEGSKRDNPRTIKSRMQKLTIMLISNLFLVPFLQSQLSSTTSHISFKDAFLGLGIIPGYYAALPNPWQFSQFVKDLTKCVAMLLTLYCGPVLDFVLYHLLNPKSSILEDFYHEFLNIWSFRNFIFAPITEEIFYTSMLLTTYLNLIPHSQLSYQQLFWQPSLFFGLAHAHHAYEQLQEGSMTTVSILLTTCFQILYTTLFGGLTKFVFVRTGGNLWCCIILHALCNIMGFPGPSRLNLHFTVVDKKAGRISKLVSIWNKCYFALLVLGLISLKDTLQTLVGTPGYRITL
Yeast UUG start: modulators of start codon recognition fidelity in yeast; 0.13% of 350,000 active; S. cerevisiae UUG-firefly luciferase reporter, luminescence/redox ratio; activity score, % at 18.7 µM;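 active = replicate mean at a twofold rise or more, about +100% in these data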;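 also: firefly luciferase made from a UUG start codon reports start codon fidelity; reporter light over untreated wells divided by growth signal over untreated wells; some hits fall short of that in this replicate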
MT1-MMP act inh: blocks activation of human MT1-MMP. P50281. HT1080 RFP-PRO-GFP cells, GFP/RFP ratio fluorescence, overnight; percent of plate control window, DMSO zero. GFP/RFP ratio change, % at 20 µM. 0.061% of 360,000 active. AID 651647;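 active = GFP/RFP ratio change of at least 30% with cell ATP level not reduced by more than half and red fluorescence within 50% of control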; also: strong numbers were not always called active
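Test system: HT1080 RFP-PRO-GFP cells; Benchmarks: DMSO and RFP-L50D-GFP cell wells; Timing: cells overnight before dosing, compound overnight, 37 °C, 5% CO2; Compound: one 20 µM compound dose with 1% DMSO; Read-out: GFP/RFP fluorescence ratio.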
eIF4H inh: inhibitors of RNA binding by human eIF4H. 0.94% of 290,000 active. inhibition, % at 35 µM. Q15056. eIF4H fluorescence polarization binding assay. AID 2012;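 active = 50% or more with normal probe brightness, or confirmed in later tests; inconclusive = above 50% with abnormal brightness, or retests that disagree; inactive = below 50% or failed in later tests; about a fifth of its hits are not listed in these tables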;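 also: calls also rest on retests at 20 µM and on dose response follow-up; 0% = protein and probe with vehicle and 100% = probe without protein; strong numbers were not always called active; many hits fall short of the cut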
CSC inhib: cancer stem cell inhibition | cancer stem cell-like cells viability, luminescence | inhibition, % at 7.5 µM | 1.1% of 300,000 active | AID 2717;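 active = mean at 75% or more and at least half the replicates too; inconclusive = mean and replicates disagree; tested in HMLE shEcad cells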;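 also: 0% = median of negative and 100% = median of positive control wells; the first replicate is given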
Env fusion inh: HIV envelope-mediated fusion inhibition. HeLa-JRFL Env/CEM21 cell fusion, luciferase. 1.1% of 360,000 active. inhibition, % at 12.3 µM;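 active = mean replicate inhibition score of at least 50 and every replicate individually at or above 50; inconclusive = only one of the two criteria met; inactive = mean below 50 and not all replicates reaching 50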;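 also: 0% = plate neutral controls and 100% = maraviroc near 300 nM; one replicate is shown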
PABP FP inh: PABP-poly(A) binding inhibition; P11940; PABP-poly(A) RNA binding, fluorescence polarization; inhibition, % at 35 µM; 1% of 290,000 active; AID 2014;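 active = 50% or more with normal probe brightness, or confirmed in later tests; inconclusive = above 50% with abnormal brightness, or retests that disagree; inactive = below 50% or failed in later tests; about a fifth of its hits are not listed in these tables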;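 also: calls also rest on retests at 20 µM and on dose response follow-up; controls were probe without protein and protein plus probe with vehicle; some compounds called inactive have numbers as strong as hits; many hits fall short of the cut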
MT1-MMP act inh RFP: also measured in MT1-MMP act inh; calls as there; RFP signal change, %; measured here: RFP expression control read;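 0 = vehicle wells; hits needed this value within 50% of zero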
The depositor's hits bear a star; i = inactive; u = inconclusive; x = not tested or not shown. Not all compounds are listed; the hit share may differ from the screen's.

#1 O=C1c2ccccc2CN1CCSC(=S)N1CCSCC1
#2 CCOC(=O)c1c(S(=O)(=O)NCC(=O)Nc2cc(C)ccc2C)c(C)n(C)c1C
#3 CCCN(CCC)CCCNC(=O)c1cn(CC)c2ccc(S(=O)(=O)N3CCOCC3)cc2c1=O
#4 COc1ccc(C(=O)Nc2cc(=O)n(C)c(=O)n2C)cc1OC
#5 N#Cc1c(N)n(CCOC(=O)c2cccc(Br)c2)c2nc3ccccc3nc12
#6 Cc1cccc(OCC(=O)NCC(=O)N/N=C/c2ccc(O)cc2O)c1
#7 CC1CC1c1ccc(/C=C(\C#N)C(=O)Nc2cc(Cl)ccc2Cl)o1 (configuration not stated)
#8 CC1(C)OC(c2ccccc2)=C/C(=C\C=N\NC(=O)c2ccncc2)O1

screen / no.	1	2	3	4	5	6	7	8
Rce1 inhib	i	i	i	i	i	i	i	i
Yeast UUG start	x	-2.7	-20.3	-12.6	-6.0	x	x	-29.8
MT1-MMP act inh	x	0.6	-1.9	-1.7	-2.0	3.2	0.9	7.5
MT1-MMP act inh RFP	x	0.1	-0.6	-0.8	0.7	-1.5	-4.3	2.3
eIF4H inh	-3.8	-6.3	-2.3	2.9	-4.3	10.4	33.3	5.4
CSC inhib	x	-32.0	-18.3	-6.9	-4.5	59.8	-3.1	-2.6
Env fusion inh	x	-1.0	-0.5	6.9	x	10.6	4.5	5.4
PABP FP inh	13.4	8.2	18.9	1.8	-11.7	13.2	-1.9	-9.6

#9 CN1C(=O)/C(=C\c2cc(Br)cs2)c2ccccc21
#10 O=C(O)C1C2CCC(O2)C1C(=O)Nc1cnn(Cc2ccccc2)c1 (configuration not stated)
#11 Cc1cccc(-n2cc(CN3CCN(c4ccccn4)CC3)c(-c3cccc(F)c3)n2)c1
#12 COc1ccc(CCNC(=O)C2CCN(S(=O)(=O)c3cccc4nonc34)CC2)cc1OC
#13 CC1(C(=O)NC(=S)N(Cc2ccccc2)c2ccccn2)CC1(Cl)Cl (configuration not stated)
#14 COc1ccc(CN(C)C(=O)Cn2cnc3c(NCc4ccccc4)ncnc32)cc1OC
#15 CCc1nc(Nc2ccc3nccnc3c2)c2oc3ccccc3c2n1
#16 CC1(c2ccc3ccccc3c2)NC(=O)N(CC(=O)NCC(C)(C)N2CCOCC2)C1=O (configuration not stated)

screen / no.	9	10	11	12	13	14	15	16
Rce1 inhib	i	i	x	i	i	x	x	i
Yeast UUG start	x	3.0	x	4.5	x	15.1	-8.7	-21.7
MT1-MMP act inh	-3.7	3.8	-2.5	-0.9	-5.6	10.3	1.5	0.4
MT1-MMP act inh RFP	-0.3	9.5	2.0	-1.0	1.4	-9.9	1.4	2.7
eIF4H inh	4.6	-5.8	1.4	1.1	-2.0	x	4.2	x
CSC inhib	0.0	-5.3	14.6	-2.6	15.4	x	-9.2	0.3
Env fusion inh	-120.7	40.8	8.8	x	x	34.4	x	6.2
PABP FP inh	-9.3	-0.8	-4.3	-6.8	2.0	x	17.5	x

#17 CCOc1ccc(C(=O)C[n+]2ccc(C(=O)NCc3ccccc3)cc2)cc1
#18 COc1ccc(S(=O)(=O)N(C)CC(=O)N2CCCC2)cc1OC
#19 O=[N+]([O-])c1ccc2c(c1)C=C1CCCCC1(N1CCCC1)O2 (configuration not stated)
#20 Clc1ccc(CONc2ncnc3nonc23)c(Cl)c1
#21 CCN=C1S/C(=C\c2cn(CC)c3ccccc23)C(=O)N1CC
#22 Cc1ccc(Cn2ccc(NC(=O)C3C4CCC(C4)C3C(=O)O)n2)cc1 (configuration not stated)
#23 CSc1nnc2c(n1)c(C)nn2-c1cccc(C)c1
#24 CC(OC(=O)C(C)N1C(=O)C2C3C=CC(C4CC34)C2C1=O)C(=O)c1ccccc1 (configuration not stated)

screen / no.	17	18	19	20	21	22	23	24
Rce1 inhib	i	i	i	i	i	i	i	i
Yeast UUG start	x	-17.8	-8.2	1.2	x	24.5	-16.6	-8.7
MT1-MMP act inh	2.6	4.0	8.2	-6.2	-2.1	6.3	-5.6	-0.9
MT1-MMP act inh RFP	3.5	-1.7	0.6	-12.8	-1.6	0.1	-3.7	-0.3
eIF4H inh	-10.3	3.5	4.9	1.5	10.6	1.7	8.8	1.9
CSC inhib	x	4.8	-1.9	25.2	x	-2.2	6.7	55.6
Env fusion inh	-7.4	-15.9	18.0	-42.4	6.9	x	-53.2	10.2
PABP FP inh	-2.1	0.8	-1.1	-7.5	11.3	5.7	-4.9	-2.7

#25 CCNC(=S)N(CCc1cccc(C)c1)Cc1cc2cc(OC)c(OC)cc2[nH]c1=O
#26 Cc1ccc(NC2CCCN(C(=O)CSc3ccccn3)C2)cc1C (configuration not stated)
#27 CCC(C)NC(=O)CCSCCC(=O)NC(C)CC (configuration not stated)
#28 O=C(Nc1ccccn1)NC(C(F)(F)F)C(F)(F)F
#29 CCOC(=O)CCCC(=O)Nc1ncnc2c1C(c1ccccc1)c1c(ccc3ccccc13)O2 (configuration not stated)
#30 CC(=O)c1ccc2c(c1)OCCOCCOCCO2
#31 O=C(NC1CCCCCC1)C1CCN(c2nc3ccccc3o2)CC1
#32 CCOC(=O)CC1C(=O)NCCN1S(=O)(=O)c1ccc(Cl)cc1Cl (configuration not stated)

screen / no.	25	26	27	28	29	30	31	32
Rce1 inhib	i	i	i	i	x	i	i	x
Yeast UUG start	-8.2	-16.2	x	-17.2	-11.9	-24.0	-20.4	-9.5
MT1-MMP act inh	-4.7	1.8	1.0	0.9	-6.1	2.4	6.6	-2.6
MT1-MMP act inh RFP	-2.8	1.6	0.0	3.6	-10.7	6.8	-12.2	2.9
eIF4H inh	-3.6	-5.7	11.0	-2.0	x	-5.2	-5.9	-8.7
CSC inhib	-22.8	3.9	-9.7	x	x	6.0	-8.7	-13.8
Env fusion inh	-51.5	13.1	2.8	-24.0	0.6	7.5	u	-29.0
PABP FP inh	0.9	-10.6	4.0	-4.3	x	7.7	-19.0	9.6

#33 CCOc1ccccc1NC(=O)C1CCCN1S(=O)(=O)c1ccc2c(c1)C(C)(C)C(=O)N2C (configuration not stated)
#34 CC(=O)N1CCC(=NNc2nc3ccccc3s2)CC1
#35 COc1ccc(NC(=S)NCCSc2ccc(C)cc2)c(OC)c1
#36 CCOC(=O)N1CCN=C1SCc1ccc(C(F)(F)F)cc1
#37 CC(C)(C)NC(=O)NC(=O)CN1CCN(c2ncc(C(F)(F)F)cc2Cl)CC1
#38 Cc1ccc(NC(=O)CSc2ncccn2)c([N+](=O)[O-])c1
#39 CCOC(=O)c1nc(C)nc(Sc2n[nH]c(-c3cc(Cl)cc(Cl)c3)n2)c1C
#40 Cc1ccc(C(=O)OCC(=O)N2CCC(c3ccccc3)=N2)c(C)c1

screen / no.	33	34	35	36	37	38	39	40
Rce1 inhib	x	i	i	i	i	i	i	i
Yeast UUG start	-4.2	-26.0	-36.7	x	-3.8	x	x	-15.2
MT1-MMP act inh	5.6	1.3	0.0	1.8	-1.4	1.1	0.3	-0.6
MT1-MMP act inh RFP	-2.4	5.8	-8.7	-1.0	-6.3	-2.5	1.2	-1.3
eIF4H inh	x	-3.5	x	2.9	-12.5	-0.2	-4.6	x
CSC inhib	x	-6.7	-7.6	-5.2	-0.6	-17.9	4.0	-2.2
Env fusion inh	10.8	11.7	8.6	0.8	-31.1	13.5	-7.6	x
PABP FP inh	x	14.1	x	2.8	-4.1	0.5	-0.5	x

#41 CC1CCN(c2nc3c(=O)[nH]c(N)nc3n2[C@@H]2O[C@H](CO)[C@@H](O)[C@H]2O)CC1
#42 Cc1ccc(C)c(NC(=O)CCN2CCCCC2)c1
#43 CC1=C(n2nnc([N+](=O)[O-])n2)C(c2cccnc2)C(C#N)=C(N)O1 (configuration not stated)
#44 CC(=O)N(c1nnc(-c2cccc(C)c2)s1)C1CCCC1
#45 CCn1c2ccccc2c2cc(/C=N/n3c(-c4cc(C)[nH]n4)n[nH]c3=S)ccc21
#46 COc1ccc(NC(=O)CSc2ccc3nnc(-c4cccnc4)n3n2)cc1OC
#47 CCN1C(=O)/C(=C\c2cccn2-c2ccc([N+](=O)[O-])cc2)N(CC)C1=S
#48 COc1ccccc1Nc1ccc(C(=O)NCc2cccs2)cn1

screen / no.	41	42	43	44	45	46	47	48
Rce1 inhib	i	i	i	i	x	i	i	i
Yeast UUG start	-12.9	-9.4	x	1.3	x	-17.2	-17.4	-12.6
MT1-MMP act inh	1.1	0.6	-14.4	2.6	3.6	1.1	0.5	-2.5
MT1-MMP act inh RFP	1.8	3.6	-5.9	0.8	-8.6	0.8	0.9	4.5
eIF4H inh	-3.3	-0.4	7.4	8.9	6.3	2.5	8.0	6.7
CSC inhib	0.8	3.5	-1.5	-5.4	24.5	-1.1	3.4	0.0
Env fusion inh	-3.3	7.0	-22.9	-34.0	5.6	x	1.3	3.5
PABP FP inh	0.0	-3.6	5.0	0.2	-6.9	0.2	-8.1	-0.1

#49 COc1cccc(C(C(=O)NCc2ccco2)N(C(=O)Cn2nnc3ccccc32)C2CC2)c1OC (configuration not stated)
#50 Cc1nn(-c2ccc(Cl)cc2)c(NC(=O)C(C)C)c(-c2ccccc2)c1=O
#51 CCc1nc2c(OCc3ccc(C(=O)N(C)C)cc3)cccn2c1N(C=O)Cc1ccccc1
#52 CN(Cc1ccc(F)cc1Cl)S(=O)(=O)c1cccs1
#53 COc1ccc2ncn(-c3ccccc3)c2c1

screen / no.	49	50	51	52	53
Rce1 inhib	i	i	x	i	i
Yeast UUG start	3.6	x	-17.0	-19.2	-3.7
MT1-MMP act inh	-1.1	1.7	-1.6	-1.9	-5.0
MT1-MMP act inh RFP	0.2	3.6	0.7	-0.8	-1.4
eIF4H inh	-8.9	0.9	x	-7.3	-9.5
CSC inhib	-9.6	-4.5	x	7.3	-8.1
Env fusion inh	x	-13.0	-9.7	-0.5	68.4*
PABP FP inh	-1.6	0.0	x	-2.3	-3.2

Of the compounds above, these contain a Cl atom:
#7 CC1CC1c1ccc(/C=C(\C#N)C(=O)Nc2cc(Cl)ccc2Cl)o1 (configuration not stated)
#13 CC1(C(=O)NC(=S)N(Cc2ccccc2)c2ccccn2)CC1(Cl)Cl (configuration not stated)
#20 Clc1ccc(CONc2ncnc3nonc23)c(Cl)c1
#32 CCOC(=O)CC1C(=O)NCCN1S(=O)(=O)c1ccc(Cl)cc1Cl (configuration not stated)
#37 CC(C)(C)NC(=O)NC(=O)CN1CCN(c2ncc(C(F)(F)F)cc2Cl)CC1
#39 CCOC(=O)c1nc(C)nc(Sc2n[nH]c(-c3cc(Cl)cc(Cl)c3)n2)c1C
#50 Cc1nn(-c2ccc(Cl)cc2)c(NC(=O)C(C)C)c(-c2ccccc2)c1=O
#52 CN(Cc1ccc(F)cc1Cl)S(=O)(=O)c1cccs1

screen / no.	7	13	20	32	37	39	50	52
Rce1 inhib	i	i	i	x	i	i	i	i
Yeast UUG start	x	x	1.2	-9.5	-3.8	x	x	-19.2
MT1-MMP act inh	0.9	-5.6	-6.2	-2.6	-1.4	0.3	1.7	-1.9
MT1-MMP act inh RFP	-4.3	1.4	-12.8	2.9	-6.3	1.2	3.6	-0.8
eIF4H inh	33.3	-2.0	1.5	-8.7	-12.5	-4.6	0.9	-7.3
CSC inhib	-3.1	15.4	25.2	-13.8	-0.6	4.0	-4.5	7.3
Env fusion inh	4.5	x	-42.4	-29.0	-31.1	-7.6	-13.0	-0.5
PABP FP inh	-1.9	2.0	-7.5	9.6	-4.1	-0.5	0.0	-2.3
